Tg IFNy HTS: inhibitors of Toxoplasma gondii growth with IFN-gamma | Toxoplasma gondii growth in IFN-gamma-treated host cells; active compounds read low; reference of the scale not given here | 69,000 tested, 3.8% active | activity change, negative = inhibition, %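 (about 20 µM by stock and volumes)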;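 active = below -70%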;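 note: host cells are HeLa cells infected with Toxoplasma gondii; parasite growth read as luciferase light; one replicate is shown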
An asterisk follows results filed as active; & = joins results of further samples. Not all compounds are listed. The share of hits here may be higher or lower than overall.

`Cc1nc(N2CCN(c3ccccc3)CC2)nc2c1C(=O)CC(c1ccccc1F)C2` (stereo not drawn) gave Tg IFNy HTS -25.
Screening C[C@H]1CCCCO[C@@H](CN(C)C(=O)c2ccncc2)[C@@H](C)CN([C@@H](C)CO)C(=O)c2cc(NC(=O)CCC(F)(F)F)ccc2O1 returned Tg IFNy HTS -66.
Screening c1ccc(-c2cn(C3CCN(c4cc(-n5cccn5)ncn4)CC3)nn2)nc1 returned Tg IFNy HTS -20.
`O=C(O)CSc1ncnc2nc[nH]c12` gave Tg IFNy HTS -11.
`Cc1cccnc1N1C[C@H]2CN(c3cnn(C)c3)C(=O)[C@@H]2C1` gave Tg IFNy HTS -73*.
`Fc1cnc(N2CCc3onc(COc4cccnc4)c3C2)nc1` gave Tg IFNy HTS 7.
O=C(Cn1c(=O)cc(C(=O)N2CCOCC2)c2ccccc21)Nc1cccc(C(F)(F)F)c1 was read as Tg IFNy HTS -9.
For CC1=C(C(=O)N(C)Cc2ccc3c(c2)OCO3)C(c2cccnc2)NC(=O)N1 (stereo not drawn) the results were Tg IFNy HTS 148.
For CN(C)S(=O)(=O)c1ccc2c(c1)cc(C(=O)N1CCCCC1)n2Cc1ccncc1 the results were Tg IFNy HTS 76.
For COc1ccc(NC(=O)Nc2ccc(-c3nc(-c4ccc(C)cc4C)co3)cc2)cc1 the results were Tg IFNy HTS 7.
`Cc1nc([C@H]2C[C@@H]3CCN(C(=O)c4cnoc4C)C[C@@H]3O2)sc1C` gave Tg IFNy HTS 71.
CCCCCCCC/C=C\CCCCCCCC(=O)N[C@@H](CO)Cc1ccc(O)cc1 was read as Tg IFNy HTS 7.
O=C(Cn1c(=O)cc(C(=O)N2CCOCC2)c2ccccc21)Nc1ccccc1 was read as Tg IFNy HTS 8.
`Cc1noc(C)c1S(=O)(=O)NCC(c1cccnc1)c1cn(C)c2ccccc12` (stereo not drawn) gave Tg IFNy HTS -1.
Screening O=C(Nc1cnc2n1CCCC2)c1nnc2n1CCCC2 returned Tg IFNy HTS -1.
For c1nc2c([nH]1)CCNC2c1cnc(N2CCOCC2)nc1 (stereo not drawn) the results were Tg IFNy HTS 2.
Cc1nn(CC(=O)O)c(C)c1NC(=O)CSc1ccncc1 was read as Tg IFNy HTS 10.
Cc1[nH]cnc1-c1nccn1-c1ccc(-c2ccn[nH]2)cc1 was read as Tg IFNy HTS 11.
For COc1ccc(NC(=O)C2OC3OC(C)(C)OC3C3OC(C)(C)OC23)cc1 (stereo not drawn) the results were Tg IFNy HTS -94*.
CC(=O)Nc1ccccc1NC(=O)CN(Cc1ccc2[nH]ccc2c1)C1CC1 was read as Tg IFNy HTS -4.
O=C(NCc1ccccn1)c1cc(NCC[C@@H]2C[C@@H]3C=C[C@H]2C3)ccn1 was read as Tg IFNy HTS -65.
CC(C(=O)NCCc1cnc[nH]1)N1C(=O)c2cccc3cccc1c23 (stereo not drawn) was read as Tg IFNy HTS 12.
Screening CC(C)N1CCO[C@H]2CN(C(=O)COc3ccccc3)CC[C@@H]2C1 returned Tg IFNy HTS -9.
`CC[C@@H]1C/C=C\C[C@@H](c2ccc(OC)cc2OC)NC(=O)[C@H](C)CC(=O)N1` gave Tg IFNy HTS -35.
Cc1ccc(-c2nnc(SCC(=O)Nc3ccccc3)o2)cc1 was read as Tg IFNy HTS 160.
Screening CN(C[C@@H]1[C@@H](c2ccccc2)[C@H](CO)N1CC1CC1)C(=O)c1ccc(F)cc1 returned Tg IFNy HTS 0.
`COc1ccc(OCc2nc(N)nc(Nc3ccc(C)cc3)n2)cc1` gave Tg IFNy HTS 40.
`Cc1noc(C)c1NC(=O)N(C)C[C@H]1OCc2cn(nn2)CCCC(=O)N([C@H](C)CO)C[C@@H]1C` gave Tg IFNy HTS 89.
For COc1cccc(-c2ccc(C3[C@@H]4CN(Cc5ccccn5)C[C@H]3N4)cc2)c1 (stereo partly drawn) the results were Tg IFNy HTS -48&-31.
Nc1nc(CCC(=O)N2CCOC(CC3CCCCC3)C2)cs1 (stereo not drawn) was read as Tg IFNy HTS 4.
CO[C@@H]1CN(C)C(=O)c2cc(NC(=O)C3CCCCC3)ccc2OC[C@H](C)N(Cc2cccnc2)C[C@@H]1C was read as Tg IFNy HTS -57.
For CCOC(=O)N1CCN(C(=O)C2=C(C)C(=O)OC23CCN(S(C)(=O)=O)CC3)CC1 the results were Tg IFNy HTS 45.
Screening Cc1nc(CCNC(=O)[C@H]2CCCN2S(=O)(=O)c2cc(C)c(C)cc2C)cs1 returned Tg IFNy HTS -12.
`O=C(O)CNc1ncnc2sc3c(c12)CCC3` gave Tg IFNy HTS -1.
Screening Cc1noc(C)c1Cc1c(C(=O)Nc2ccc3c(c2)N(C)C(=O)CO3)noc1C returned Tg IFNy HTS 20.
Screening CCn1nc(CC(C)C)cc1C(=O)N1CCn2cncc2C1 returned Tg IFNy HTS 10.
For CN(Cc1nc(-c2ccccc2)no1)C(=O)c1ccc(C#CC(C)(C)O)o1 the results were Tg IFNy HTS -4.
CCc1c(O)c(Cc2ccccc2)c(=O)n(-c2nccs2)c1-c1ccccc1 was read as Tg IFNy HTS -17.
NC(=O)c1ccc2[nH]ccc2c1 was read as Tg IFNy HTS -9&13.
CNC(=O)[C@@H]1CC2CN(C(=O)c3cnc(C)cn3)CC2N1C (stereo partly drawn) was read as Tg IFNy HTS 1.
Nc1cc(-c2ccc(Cl)cc2)nc(N)n1 was read as Tg IFNy HTS 100.
COCC(C)N(Cc1ccccc1OC)C(=O)c1cnn2ccccc12 (stereo not drawn) was read as Tg IFNy HTS -16.
Cc1cc(NC(=O)N(CCC#N)Cc2ccccc2)c(C(F)(F)F)o1 was read as Tg IFNy HTS -15.
`CCOCC1CN(CC2CC2)Cc2cnn(C)c21` (stereo not drawn) gave Tg IFNy HTS 91.
Cc1nn(C)cc1CN1CC[C@@H]2OCCN(Cc3ccncc3)[C@@H]2C1 was read as Tg IFNy HTS 212.
Screening O=C1CN(Cc2cccc(C(=O)Nc3ccc4ncccc4c3)c2)CCN1 returned Tg IFNy HTS 124.
Screening O=C(CC1CC1)N1CC2(C1)[C@H](c1ccccc1)[C@H](CO)N2S(=O)(=O)Cc1ccccc1 returned Tg IFNy HTS -5.
Screening Cc1nccc(N2CCC(Cc3n[nH]c(=O)n3-c3ccccc3)CC2)n1 returned Tg IFNy HTS -48.
Screening O=C(c1cn2cccnc2n1)N1CCCC(Cn2cc(C3CCCC3)nn2)C1 (stereo not drawn) returned Tg IFNy HTS 0.
`O=C1N(Cc2ccccn2)C(=O)C2(CCN(Cc3ccoc3)CC2)N1Cc1ccccc1` gave Tg IFNy HTS 11.
O=C(c1cccc(F)c1)N1CCCCN2[C@H](C1)[C@H](c1ccc(C#CC3(O)CCCC3)cc1)[C@@H]2CO was read as Tg IFNy HTS -38.
Oc1cc(-c2cccc(Cl)c2)cc2c1OCCN(CCn1cccc1)C2 was read as Tg IFNy HTS -1.
CCc1cccc(NC(=O)c2c(O)c3ccccc3n(CC)c2=O)c1 was read as Tg IFNy HTS 4.
`Cc1cnc(CNC(=O)c2nc(-c3cn(Cc4ccccc4)c(C)n3)n3ccccc23)cn1` gave Tg IFNy HTS -2.
C=C1C2(C(=O)NCC(c3ccc(OC)c(OC)c3)N3CCCC3)CCC(C2)C1(C)C (stereo not drawn) was read as Tg IFNy HTS -5.
For Cc1cc(C)n(Cc2nc(-c3ccc(NC(=O)C(C)C)cc3)oc2C)n1 the results were Tg IFNy HTS 118.
Screening CCN(CC)C(=O)c1cc(=O)n(CC(=O)Nc2ccc(C)cc2Cl)c2ccccc12 returned Tg IFNy HTS 3.
Cc1cnc(N2CC[C@@H]3CN(c4ccc(C)nn4)CCO[C@H]3C2)nc1 was read as Tg IFNy HTS -56.
For CC(C)c1ccc(S(=O)(=O)N2CCCn3nnc(Cn4cccn4)c3C2)cc1 the results were Tg IFNy HTS 83.
For C=CCN1CCOCC2(C1)CN(Cc1ccc(F)cc1)CCO2 (stereo not drawn) the results were Tg IFNy HTS -5.
Screening C/C=C/c1ccccc1[C@@H]1[C@@H](C#N)N(c2nc(CC)cs2)[C@@H]1CO returned Tg IFNy HTS 2.
`COc1ccc(C(=O)N2CCc3c([nH]c4ccccc34)C2c2ccc(Cl)cc2)cc1OC` (stereo not drawn) gave Tg IFNy HTS 12.
Screening CCN1c2ccc(F)cc2C(=O)NC12CCN(C(=O)c1ccc(C)cc1C)CC2 returned Tg IFNy HTS 3.
For CN1C(=O)c2cc(NC(=O)C3CCOCC3)ccc2OC[C@H]2O[C@H](CC(=O)NCCc3ccncc3)CC[C@@H]21 the results were Tg IFNy HTS -2.
For C[C@H]1CC(=O)NCC/C=C\C[C@@H](c2cccc(Cl)c2)NC1=O the results were Tg IFNy HTS -59.
CSc1ncnc2c1nnn2Cc1ccccc1Cl was read as Tg IFNy HTS -28.
Screening COc1ccc(-c2ccccc2C(N)=O)cc1Cl returned Tg IFNy HTS 7.
For CN(Cc1ccoc1)c1nc(C(C)(C)C)nc2c1cnn2C the results were Tg IFNy HTS -60.
Screening CCCCCCCCCCCCCCCC(=O)OC1C(SC)OC(C(NC(=O)C2CC(CCC)CN2C)C(C)Cl)C(O)C1O (stereo not drawn) returned Tg IFNy HTS -23.
Screening CN(C)CCOC(=O)COc1ccc(Cl)cc1 returned Tg IFNy HTS 21&13.
Screening CC(C)CNc1nc2c(cc1C(=O)NC(C)C)CCN(c1ccncn1)CC2 returned Tg IFNy HTS -39.
Screening O=C(C1CCOCC1)N1CC[C@@H]2[C@H](CO)Nc3ccc(-c4cccc(F)c4)cc3[C@@H]21 returned Tg IFNy HTS 7.
`COc1ccc([C@@H]2C/C=C\C[C@@H](c3ccc4c(c3)OCO4)NC(=O)[C@@H](c3ccccc3)CC(=O)N2)c(OC)c1` gave Tg IFNy HTS 32.
`CCn1c(C2CCCNC2)nn(Cc2cccc(C(=O)OC)c2)c1=O` (stereo not drawn) gave Tg IFNy HTS 11.
Screening COCCNC(=O)c1cc2c(c(-c3cccc(C4=CCCCC4)c3)n1)[C@H](CCO)N([S@@](=O)C(C)(C)C)C2 returned Tg IFNy HTS 16.
For OC[C@H]1[C@H]2c3ccccc3NC[C@H]2N1CC1CCOCC1 the results were Tg IFNy HTS 7.
Screening CCN(CC)CCn1ccnc1-c1cc2ccc(F)cc2[nH]c1=O returned Tg IFNy HTS -25.
For Cc1c(CN(C)Cc2ccc(C#CC(C)(C)O)s2)cnn1C the results were Tg IFNy HTS 3.
`O=C1CCCc2nc3nc(-c4cccnc4)nn3cc21` gave Tg IFNy HTS 26.
For Cc1cnc2c(C(=O)N3CCCC(c4nc(CC(C)C)no4)C3)cnn2c1 (stereo not drawn) the results were Tg IFNy HTS 206.

Three structures from above, arranged by SMILES length, falling.
Screening COCCNC(=O)c1cc2c(c(-c3cccc(C4=CCCCC4)c3)n1)[C@H](CCO)N([S@@](=O)C(C)(C)C)C2 returned Tg IFNy HTS 16.
For Cc1cnc2c(C(=O)N3CCCC(c4nc(CC(C)C)no4)C3)cnn2c1 (stereo not drawn) the results were Tg IFNy HTS 206.
`O=C1CCCc2nc3nc(-c4cccnc4)nn3cc21` gave Tg IFNy HTS 26.

Remaining list, next part:
For O=C(Cc1ccc(CO)cc1)N1CC(Oc2ccccc2F)C1 the results were Tg IFNy HTS -5.
`Fc1ccc(-c2nc(-c3cccnc3Cl)no2)cc1` gave Tg IFNy HTS 204.
`Cc1nc2cc(-c3ccco3)nn2c(NCc2ccc(N3CCCC3=O)cc2)c1C` gave Tg IFNy HTS 5.
For O=C(CCC(=O)N1CC[C@@H](c2ccc(F)cc2)[C@H](O)C1)c1ccccc1 the results were Tg IFNy HTS 13.
O=C(Cn1c(=O)n(CC2CC2)c2ccc(C(=O)O)cc21)NCc1cccs1 was read as Tg IFNy HTS 29.
`C=CCN(Cc1cccc(OC)c1)C(=O)c1ccc2[nH]ccc2c1` gave Tg IFNy HTS 20.
`C[C@@H]1CCCCO[C@@H](CN(C)Cc2ccc(Cl)c(Cl)c2)[C@@H](C)CN([C@H](C)CO)C(=O)c2cc(NC(=O)CCCCCC(=O)Nc3ccccc3N)ccc2O1` gave Tg IFNy HTS 101.
COC1CCCCC1Nc1ccc(C)c(C)c1 (stereo not drawn) was read as Tg IFNy HTS 17.
Screening O=C(Nc1ccc2c(c1)OCCO2)C1CCN(S(=O)(=O)c2ccc3[nH]c(=O)ccc3c2)CC1 returned Tg IFNy HTS -16.
`C[C@@H]1CN([C@H](C)CO)C(=O)c2cc(N(C)C)ccc2O[C@@H](C)CCCCO[C@H]1CN(C)Cc1ccc(C(=O)O)cc1` gave Tg IFNy HTS 116.
Screening CC(CC(=O)Nc1nc(C(C)(C)C)cs1)n1cncn1 (stereo not drawn) returned Tg IFNy HTS 5.
For CCC1(c2ccccc2)NC(=S)N(c2ccc(C)c(C)c2)N1 (stereo not drawn) the results were Tg IFNy HTS 81.
CC(C)CN1CC2(CCN(Cc3cnn(C)c3)CC2)COc2ccccc2S1(=O)=O was read as Tg IFNy HTS -13.
For C[C@@H](NC(=O)C[C@H]1CC[C@H]2[C@@H](COC[C@H](O)CN2C(=O)Nc2cccc(Cl)c2)O1)c1ccccc1 the results were Tg IFNy HTS -64.

Molecules shown so far that contain an NH in an aromatic ring:
`O=C(O)CSc1ncnc2nc[nH]c12` gave Tg IFNy HTS -11.
For c1nc2c([nH]1)CCNC2c1cnc(N2CCOCC2)nc1 (stereo not drawn) the results were Tg IFNy HTS 2.
Cc1[nH]cnc1-c1nccn1-c1ccc(-c2ccn[nH]2)cc1 was read as Tg IFNy HTS 11.
CC(=O)Nc1ccccc1NC(=O)CN(Cc1ccc2[nH]ccc2c1)C1CC1 was read as Tg IFNy HTS -4.
CC(C(=O)NCCc1cnc[nH]1)N1C(=O)c2cccc3cccc1c23 (stereo not drawn) was read as Tg IFNy HTS 12.
NC(=O)c1ccc2[nH]ccc2c1 was read as Tg IFNy HTS -9&13.
Screening Cc1nccc(N2CCC(Cc3n[nH]c(=O)n3-c3ccccc3)CC2)n1 returned Tg IFNy HTS -48.
`COc1ccc(C(=O)N2CCc3c([nH]c4ccccc34)C2c2ccc(Cl)cc2)cc1OC` (stereo not drawn) gave Tg IFNy HTS 12.
Screening CCN(CC)CCn1ccnc1-c1cc2ccc(F)cc2[nH]c1=O returned Tg IFNy HTS -25.
`C=CCN(Cc1cccc(OC)c1)C(=O)c1ccc2[nH]ccc2c1` gave Tg IFNy HTS 20.
Screening O=C(Nc1ccc2c(c1)OCCO2)C1CCN(S(=O)(=O)c2ccc3[nH]c(=O)ccc3c2)CC1 returned Tg IFNy HTS -16.

Screening data: PubChem BioAssay, Broad Institute
